Env fusion inh = blocks HIV Env-driven cell-cell fusion. HeLa-JRFL Env/CEM21 cell fusion, luciferase. inhibition, % at 12.3 µM. 360,000 tested, 1.1% active;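 active = mean replicate inhibition score of at least 50 and every replicate individually at or above 50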;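 also: 0% = plate neutral controls and 100% = maraviroc near 300 nM; one replicate is shown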
Yeast UUG start = alters start codon recognition fidelity in yeast; AID 602363; 350,000 tested, 0.13% active; activity score, % at 18.7 µM; S. cerevisiae UUG-firefly luciferase reporter, luminescence/redox ratio;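 active = replicate mean at a twofold rise or more, about +100% in these data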;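 also: firefly luciferase made from a UUG start codon reports start codon fidelity; reporter light over untreated wells divided by growth signal over untreated wells; some hits fall short of that in this replicate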
* = called active by the depositor; [ ] = dose if it differs, or a comment. This is a subset; the hit share may differ from the screen's.

SMILES	Env fusion inh	Yeast UUG start
COc1ccc(S(=O)(=O)Nc2ccc3c(c2)CC(=O)N([C@@H](C)CO)C[C@H](C)[C@H](CN(C)C(=O)NC(C)C)O3)cc1	-4.2[16.7 µM]	8.4
O=C(C[C@H]1C=C[C@@H](NC(=O)C2CC2)[C@@H](CO)O1)NCC1CC1	1.8[16.7 µM]	-9.9
C[C@H]1CN([C@@H](C)CO)C(=O)c2cc(NC(=O)Nc3ccc(C(F)(F)F)cc3)ccc2O[C@@H]1CN(C)S(=O)(=O)c1ccc(Cl)cc1	-1.4[16.7 µM]	-13.8
COc1ccc(NC(=O)N(C)C[C@@H]2Oc3cc(-c4ccncc4)ccc3S(=O)(=O)N([C@@H](C)CO)C[C@@H]2C)cc1	-12.8[16.7 µM]	-5.8
C[C@@H]1CCCCO[C@@H](CN(C)CC2CCCCC2)[C@H](C)CN([C@H](C)CO)C(=O)c2cc(NC(=O)Nc3cccc4ccccc34)ccc2O1	9.5[16.7 µM]	2.0
C[C@H](CO)N1C[C@H](C)[C@H](CN(C)S(=O)(=O)c2cccs2)OCCCC[C@H](C)Oc2ccc(NC(=O)C3CCCCC3)cc2C1=O	-315.2[16.7 µM]	-8.5
C[C@H]1CN([C@@H](C)CO)C(=O)c2cc(NS(=O)(=O)c3ccc(F)cc3)ccc2O[C@@H]1CN(C)C(=O)Nc1cccc2ccccc12	-46.7[16.7 µM]	-4.3
C[C@H](CO)N1C[C@H](C)[C@H](CN(C)C(=O)c2ccccc2F)Oc2ncc(-c3ccc(F)cc3)cc2C1=O	-8.1[16.7 µM]	19.3
Cc1ccc(S(=O)(=O)Nc2cccc3c2O[C@@H](CN(C)Cc2ccncc2)[C@@H](C)CN([C@@H](C)CO)C3=O)cc1	-3.6[16.7 µM]	-11.2
C[C@@H]1CCCCO[C@H](CN(C)C(=O)Cc2ccccc2)[C@H](C)CN([C@@H](C)CO)C(=O)c2cc(NC(=O)CCCN(C)C)ccc2O1	-4.3[16.7 µM]	0.3
N#C[C@H]1[C@@H](c2ccc(C#CC3CC3)cc2)[C@H](CO)N1S(=O)(=O)c1ccccc1	-9.3[16.7 µM]	-1.6
CN(C)CC(=O)Nc1ccc2c(c1)[C@H]1C[C@@H](CC(=O)N3CCOCC3)O[C@@H](CO)[C@H]1O2	-12.0[16.7 µM]	-10.3
C[C@H]1CN([C@@H](C)CO)C(=O)Cc2cc(NS(=O)(=O)c3cn(C)cn3)ccc2O[C@H]1CN(C)S(=O)(=O)c1ccccc1	-7.9[16.7 µM]	-8.3
CO[C@@H]1CN(C)C(=O)c2cc(NS(C)(=O)=O)ccc2OC[C@H](C)N(C(=O)CN(C)C)C[C@H]1C	-5.7[16.7 µM]	-13.5
Cc1noc(C)c1S(=O)(=O)Nc1ccc2c(c1)C(=O)N([C@@H](C)CO)C[C@H](C)[C@H](CN(C)C(=O)c1ccncc1)OCCCC[C@@H](C)O2	-2.8[16.7 µM]	14.1
C/C=C/c1ccc2c(c1)O[C@@H](CN(C)C(=O)c1cccnc1)[C@@H](C)CN([C@H](C)CO)S2(=O)=O	-21.2[16.7 µM]	-14.0
CS(=O)(=O)N1[C@@H](C#N)[C@@H](c2ccc(C#CC3CCCCC3)cc2)[C@@H]1CO	1.5[16.7 µM]	-5.3
CCC(=O)Nc1ccc2c(c1)C(=O)N(C)C[C@H](OC)[C@H](C)CN(Cc1ccccc1OC)[C@@H](C)CO2	3.7[16.7 µM]	-18.4
NCC[C@H]1CC[C@H](NS(=O)(=O)Cc2ccccc2)[C@@H](CO)O1	8.3[16.7 µM]	-11.9
O=C(C[C@H]1CC[C@H](NC(=O)c2ccc3c(c2)OCO3)[C@@H](CO)O1)NC1Cc2ccccc2C1	-0.8[16.7 µM]	-8.2
COc1ccc(NC(=O)Nc2ccc3c(c2)C(=O)N([C@@H](C)CO)C[C@@H](C)[C@H](CN(C)C(=O)Nc2ccc(F)cc2)O3)cc1	-2.2[16.7 µM]	22.3
C[C@@H]1CN([C@H](C)CO)C(=O)c2cc(NC(=O)C3CCCCC3)ccc2O[C@@H](C)CCCCO[C@H]1CN(C)Cc1ccc2c(c1)OCO2	-9.2[16.7 µM]	10.1
CC(C)CC#Cc1cnc2c(c1)C(=O)N([C@@H](C)CO)C[C@@H](C)[C@H](CN(C)C(=O)CC1CC1)O2	-5.8[16.7 µM]	9.5
COC(=O)C[C@H]1CC[C@H]2[C@H](COc3ccc(NC(=O)Nc4ccc(C#N)cc4)cc3C(=O)N2C)O1	1.2[16.7 µM]	-7.7

The last 5 compounds of the part above lead into the next.
SMILES	Env fusion inh	Yeast UUG start
O=C(C[C@H]1CC[C@H](NC(=O)c2ccc3c(c2)OCO3)[C@@H](CO)O1)NC1Cc2ccccc2C1	-0.8[16.7 µM]	-8.2
COc1ccc(NC(=O)Nc2ccc3c(c2)C(=O)N([C@@H](C)CO)C[C@@H](C)[C@H](CN(C)C(=O)Nc2ccc(F)cc2)O3)cc1	-2.2[16.7 µM]	22.3
C[C@@H]1CN([C@H](C)CO)C(=O)c2cc(NC(=O)C3CCCCC3)ccc2O[C@@H](C)CCCCO[C@H]1CN(C)Cc1ccc2c(c1)OCO2	-9.2[16.7 µM]	10.1
CC(C)CC#Cc1cnc2c(c1)C(=O)N([C@@H](C)CO)C[C@@H](C)[C@H](CN(C)C(=O)CC1CC1)O2	-5.8[16.7 µM]	9.5
COC(=O)C[C@H]1CC[C@H]2[C@H](COc3ccc(NC(=O)Nc4ccc(C#N)cc4)cc3C(=O)N2C)O1	1.2[16.7 µM]	-7.7
Cn1cnc(S(=O)(=O)N2C[C@@H](O)COC[C@H]3O[C@@H](CC(=O)N4CCN(c5ccccc5)CC4)CC[C@@H]32)c1	-4.4[16.7 µM]	2.5
CC(C)C#Cc1cnc2c(c1)C(=O)N([C@@H](C)CO)C[C@@H](C)[C@@H](CN(C)Cc1ccccc1)O2	-9.3[16.7 µM]	4.2
CC(C)C#Cc1ccc2c(c1)O[C@@H](CN(C)C(=O)CC1CC1)[C@@H](C)CN([C@H](C)CO)S2(=O)=O	-19.5[16.7 µM]	-2.3
C[C@H]1CN([C@@H](C)CO)S(=O)(=O)c2ccc(C3=CCCC3)cc2O[C@@H]1CN(C)C(=O)Cc1ccncc1	1.2[16.7 µM]	6.8
C[C@H]1CN([C@@H](C)CO)C(=O)c2cc(-c3ccc(F)cc3)cnc2O[C@H]1CN(C)C(=O)CN(C)C	-32.4[16.7 µM]	3.3
C[C@H]1CN([C@@H](C)CO)C(=O)c2cccc(NC(=O)c3cnccn3)c2O[C@H]1CN(C)Cc1ccc(Oc2ccccc2)cc1	-12.9[16.7 µM]	0.2
CCC(=O)N(C)C[C@@H]1Oc2ncc(C#CCC(C)C)cc2C(=O)N([C@H](C)CO)C[C@H]1C	3.7[16.7 µM]	-0.7
COc1ccc(NC(=O)Nc2ccc3c(c2)CC(=O)N([C@H](C)CO)C[C@H](C)[C@@H](CN(C)C(=O)Nc2ccc(C(F)(F)F)cc2)O3)cc1	23.1[16.7 µM]	1.5
Cc1noc(C)c1NC(=O)N(C)C[C@H]1Oc2ccc(NC(=O)Cc3cn(C)c4ccccc34)cc2CC(=O)N([C@@H](C)CO)C[C@@H]1C	2.8[16.7 µM]	-1.1
COCC(=O)Nc1ccc2c(c1)OC[C@@H](C)N(C(=O)c1ccncc1)C[C@H](C)[C@@H](OC)CN(C)C2=O	7.5[16.7 µM]	39.0
Cc1cc(C(=O)Nc2cccc3c2O[C@@H](CN(C)C)[C@@H](C)CN([C@@H](C)CO)C3=O)n(C)n1	18.7[16.7 µM]	14.7
COc1ccccc1-c1cnc2c(c1)C(=O)N([C@H](C)CO)C[C@H](C)[C@H](CN(C)Cc1ccc(F)cc1)O2	15.3[16.7 µM]	10.4
CO[C@H]1CN(C)C(=O)c2cc(NS(C)(=O)=O)ccc2OC[C@@H](C)N(Cc2nccs2)C[C@@H]1C	5.0[16.7 µM]	-0.9
C[C@H](CO)N1C[C@H](C)[C@H](CN(C)Cc2ccc(C(=O)Nc3ccccc3N)cc2)Oc2ccc(NS(C)(=O)=O)cc2C1=O	-0.4[16.7 µM]	7.8
C[C@@H]1CN([C@H](C)CO)C(=O)c2cc(NC(=O)Cc3ccccc3)ccc2O[C@@H](C)CCCCO[C@H]1CN(C)Cc1ccccc1	7.7[16.7 µM]	10.8
CC(C)NC(=O)N(C)C[C@@H]1OCCCC[C@H](C)Oc2ccc(NC(=O)c3ccncc3)cc2C(=O)N([C@@H](C)CO)C[C@H]1C	-9.0[16.7 µM]	3.2
O=C(C[C@H]1C=C[C@H](NS(=O)(=O)c2ccc(F)cc2)[C@@H](CO)O1)NCCN1CCCCC1	-43.9[16.7 µM]	-1.0
C[C@H]1CN([C@@H](C)CO)C(=O)c2cc(-c3ccc(F)cc3)cnc2O[C@@H]1CN(C)C(=O)c1ccc(F)cc1	-7.3[16.7 µM]	10.6
C[C@@H]1CN([C@H](C)CO)S(=O)(=O)c2ccc(-c3ccc(F)cc3)cc2O[C@H]1CN(C)S(C)(=O)=O	22.0[16.7 µM]	0.7
C[C@@H]1CN([C@H](C)CO)C(=O)c2cccc(NC(=O)c3ccncc3)c2O[C@H]1CN(C)Cc1ccccc1	49.8[16.7 µM]	-9.0
COc1ccc(S(=O)(=O)N[C@@H]2C=C[C@H](CC(=O)N3CCc4ccccc4C3)O[C@@H]2CO)cc1	13.8[16.7 µM]	12.7
CC(C)CC#Cc1ccc2c(c1)O[C@H](CN(C)C(=O)C1CCC1)[C@H](C)CN([C@@H](C)CO)S2(=O)=O	28.7[16.7 µM]	1.3
CC(C)NC(=O)Nc1cccc2c1O[C@H](CN(C)Cc1ccc(-c3ccccc3)cc1)[C@H](C)CN([C@@H](C)CO)C2=O	-43.5[16.7 µM]	2.2
C[C@H]1CN([C@@H](C)CO)C(=O)Cc2cc(NC(=O)Nc3ccc4c(c3)OCO4)ccc2O[C@H]1CN(C)CC1CC1	4.4[16.7 µM]	-4.0
Cc1ccc(S(=O)(=O)Nc2cccc3c2O[C@H](CN(C)S(=O)(=O)c2ccc(C)cc2)[C@@H](C)CN([C@@H](C)CO)C3=O)cc1	-107.9[16.7 µM]	6.9
O=C(C[C@H]1CC[C@H](NC(=O)Nc2ccc(C(F)(F)F)cc2)[C@@H](CO)O1)NCc1cccc(F)c1	-4.0[16.7 µM]	-1.7
C[C@@H]1CN([C@H](C)CO)C(=O)c2cccc(NS(=O)(=O)c3cn(C)cn3)c2O[C@@H]1CN(C)S(=O)(=O)c1ccc(Cl)cc1	-20.2[16.7 µM]	0.8
COCC(=O)N(C)C[C@@H]1Oc2ncc(-c3ccc(C#N)cc3)cc2C(=O)N([C@@H](C)CO)C[C@@H]1C	7.8[16.7 µM]	-11.3
O=C(C[C@@H]1CC[C@@H](NC(=O)Nc2ccc(C(F)(F)F)cc2)[C@H](CO)O1)NCc1ccccn1	-2.8[16.7 µM]	-19.0
C[C@H](CO)N1C[C@H](C)[C@H](CN(C)CC2CC2)Oc2ccc(NC(=O)Cc3ccccc3)cc2CC1=O	21.7[16.7 µM]	5.4
COCC#Cc1cnc2c(c1)C(=O)N([C@H](C)CO)C[C@H](C)[C@H](CN(C)C(=O)c1cnccn1)O2	3.2[16.7 µM]	-6.0
CN1C(=O)c2cc(NC(=O)NCc3ccccc3)ccc2OC[C@H]2O[C@H](CC(=O)O)CC[C@H]21	-7.2[16.7 µM]	-10.5
CC(C)C#Cc1ccc2c(c1)O[C@@H](CN(C)Cc1cncnc1)[C@@H](C)CN([C@H](C)CO)S2(=O)=O	-5.6[16.7 µM]	-10.0
CCNC(=O)C[C@H]1CC[C@H]2[C@H](COc3ccc(NC(=O)C4CCOCC4)cc3C(=O)N2C)O1	8.4[16.7 µM]	4.2
Cc1ccc(-c2cnc3c(c2)C(=O)N([C@@H](C)CO)C[C@H](C)[C@@H](CN(C)Cc2ccccc2C(=O)O)O3)cc1	-7.2[16.7 µM]	19.6
C[C@H]1CN([C@@H](C)CO)C(=O)Cc2cc(NC(=O)CCN3CCOCC3)ccc2O[C@H]1CN(C)CC1CC1	-13.8[16.7 µM]	7.7
CNC[C@@H]1OCCCC[C@@H](C)Oc2ccc(NC(=O)Nc3cccc4ccccc34)cc2C(=O)N([C@@H](C)CO)C[C@H]1C	-13.1[16.7 µM]	20.2
CC(C)CC#Cc1cnc2c(c1)C(=O)N([C@@H](C)CO)C[C@@H](C)[C@H](CN(C)C(=O)c1cnccn1)O2	7.6[16.7 µM]	1.3
CCCNC(=O)N(C)C[C@H]1Oc2cc(C#C[C@H](C)O)ccc2S(=O)(=O)N([C@H](C)CO)C[C@@H]1C	2.6[16.7 µM]	2.3
COc1ccc(S(=O)(=O)N(C)C[C@H]2Oc3ccc(N(C)C)cc3C(=O)N([C@@H](C)CO)C[C@H]2C)cc1	11.6[16.7 µM]	8.4
C[C@H]1CN([C@@H](C)CO)S(=O)(=O)c2ccc(C#CC3CC3)cc2O[C@H]1CN(C)Cc1ccc(F)cc1	5.8[16.7 µM]	16.3
CC(C)NC(=O)N(C)C[C@H]1Oc2cc(C3=CCCC3)ccc2S(=O)(=O)N([C@H](C)CO)C[C@@H]1C	4.9[16.7 µM]	-7.3
C[C@H](CO)N1C[C@H](C)[C@@H](CN(C)Cc2ccc(Cl)c(Cl)c2)Oc2ccc(NC(=O)NC3CCCCC3)cc2C1=O	11.9[16.7 µM]	-1.4
CC(C)NC(=O)N(C)C[C@H]1Oc2ccc(N(C)C)cc2C(=O)N([C@@H](C)CO)C[C@H]1C	4.9[16.7 µM]	-2.0
C[C@@H]1CN([C@@H](C)CO)S(=O)(=O)c2ccc(C3=CCCC3)cc2O[C@@H]1CN(C)Cc1cccc(C(=O)O)c1	7.3[16.7 µM]	9.6
CNC[C@@H]1Oc2c(NC(=O)C3CCCCC3)cccc2C(=O)N([C@@H](C)CO)C[C@H]1C	4.3[16.7 µM]	-6.6
COc1ccc(NC(=O)N(C)C[C@@H]2OCCCC[C@H](C)Oc3ccc(NS(=O)(=O)c4ccccc4)cc3C(=O)N([C@H](C)CO)C[C@H]2C)cc1	-0.6[16.7 µM]	-0.3
